Screening data: PubChem BioAssay, Broad Institute
DUX4 txn inh – blocks DUX4-driven transcriptional activation; activity change, negative = inhibition, % (test concentration not listed); 293T-iDUX4 ZSCAN4-Gaussia luciferase reporter, 24 h; active compounds read low; hit rate 0.8% among 37,000;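 active = -10% or lower and over 25 points stronger than a control reporter; inconclusive = -10% or lower with a smaller gap; inactive = above -10%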;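 note: 0% = median of neutral control wells and -100% = median of positive control wells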
DUX4 txn inh difference – recorded beside DUX4 txn inh, whose call it bears; Gaussia minus Italica difference, %; measured here: selective DUX4 reporter inhibition;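 worked out from the two reporters; negative = selective loss of the DUX4 reporter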
DUX4 txn inh control – second read-out of DUX4 txn inh, no call of its own (marks repeat the call); activity change, negative = inhibition, %; measured here: Italica tet-on control reporter;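 0 = neutral control and -100 = positive control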
Active calls of the source: *; u = inconclusive; x = not tested or not shown; ! = repeats disagree. An excerpt; rates above refer to the full screens.

SMILES	DUX4 txn inh	DUX4 txn inh difference	DUX4 txn inh control
Cc1ccc(S(=O)(=O)N(C)C[C@@H]2Oc3c(NS(C)(=O)=O)cccc3C(=O)N([C@@H](C)CO)C[C@H]2C)cc1	-2	2	-4.5
O=C(C[C@@H]1C[C@@H]2c3cc(NS(=O)(=O)c4ccc(F)cc4)ccc3O[C@@H]2[C@@H](CO)O1)NCc1cccc(F)c1	-3	-6	2.9
Cc1cc(C(=O)Nc2ccc3c(c2)C(=O)N(C)[C@H]2CC[C@@H](CC(=O)N[C@@H](C)c4ccccc4)O[C@@H]2CO3)no1	-5	15	-19
COCCNC(=O)[C@@H]1[C@@H](CO)[C@@H]2Cn3c(cccc3=O)[C@H]1N2S(=O)(=O)c1ccccc1C	-6	-2	-3.9
C[C@@H]1CCCCO[C@@H](CN(C)C(=O)c2ccncc2)[C@@H](C)CN([C@@H](C)CO)C(=O)c2cc(NS(=O)(=O)c3cn(C)cn3)ccc2O1	1	0	1.2
COCC(=O)N1[C@@H]2CN(C(=O)c3ccccc3F)c3ccccc3[C@@H]2[C@@H]1CO	-1	2	-3.3
COc1ccccc1CN1C[C@@H]2N[C@H](C1)C2c1ccc(-c2ccncc2)cc1 (stereo not given in full)	-14*!	-39*!	26*!
C[C@@H]1CCCCO[C@@H](CN(C)CC2CC2)[C@H](C)CN([C@H](C)CO)C(=O)c2cc(NC(=O)c3ccccc3)ccc2O1	0	-4	4.0
COc1ccc(NC(=O)N(C)C[C@@H]2OCc3cn(nn3)CCCC(=O)N([C@H](C)CO)C[C@H]2C)c(OC)c1	-7	-12	4.8
C[C@@H]1CC=CC[C@@H](c2cccc(Cl)c2)NC(=O)[C@H](Cc2ccccc2)N(C)C(=O)c2ccccc2O1 (mixture of isomers)	5	2	3.1
O=C(NC1CCCC1)N1CC(=O)N2[C@H](CO)[C@@H](c3ccc(/C=C/c4ccccc4)cc3)[C@@H]2C1	-6	4	-10
C[C@@H]1CN([C@H](C)CO)C(=O)c2cc(C#Cc3ccccc3)cnc2O[C@@H]1CN(C)C(=O)c1ccccc1	-3	-4	0.8
C[C@@H]1CN([C@@H](C)CO)C(=O)c2cc(NS(=O)(=O)c3ccc(Cl)cc3)ccc2O[C@@H](C)CCCCO[C@H]1CN(C)Cc1ccncc1	-1	-2	1.3
N#C[C@@H]1[C@@H](c2ccccc2)[C@@H](CO)N1S(=O)(=O)c1ccc(F)cc1	-4	-3	-0.7
CO[C@@H](CN(C)Cc1cc(F)ccc1F)[C@@H](C)CN(C(=O)Nc1ccc(F)cc1)[C@@H](C)CO	-2	-2	-0.4
CO[C@H]1CN(C)C(=O)c2ccc(NC(=O)Nc3c(C)noc3C)cc2OC[C@H](C)N(CCC(F)(F)F)C[C@H]1C	2	1	0.3
CC(=O)N(C)C[C@@H]1[C@@H](c2ccc(C3=CCCCC3)cc2)[C@@H](CO)N1CC1CC1	1	-2	3.3
COc1cccc(CN2[C@@H]3CNC[C@H]2C3c2ccc(-c3ccccc3C)cc2)c1 (stereo not given in full)	u	-5	14
CCC(=O)N1[C@@H]2Cn3c(cccc3=O)[C@H]1[C@@H](C(=O)N1CCCCC1)[C@@H]2CO	1	-1	2.6
CNC[C@H]1Oc2c(NC(=O)c3cnccn3)cccc2C(=O)N([C@@H](C)CO)C[C@H]1C	2	-3	5.1
Cc1ccc(S(=O)(=O)N(C)C[C@H]2Oc3ccc(NC(=O)Nc4ccc(C(F)(F)F)cc4)cc3CC(=O)N([C@H](C)CO)C[C@H]2C)cc1	2	-1	2.9
COc1ccccc1CNC(=O)C[C@H]1C[C@H]2c3cc(NC(=O)Nc4ccc(C(F)(F)F)cc4)ccc3O[C@H]2[C@H](CO)O1	u	x	x
COc1ccccc1-c1ccc([C@H]2[C@H]3CN(C(=O)NC4CCCC4)CCCCN3[C@H]2CO)cc1	-4	-8	4.0
CC(C)NC(=O)N1CC[C@@H]2[C@@H](CO)N(C)c3ccc(Br)cc3[C@@H]21	33	19	14
COc1cccc(S(=O)(=O)N2C[C@@H](O)COC[C@@H]3O[C@H](CC(=O)N4CCN(c5ccccc5)CC4)CC[C@H]32)c1	-3	-11	8.9
CCCC#Cc1ccc2c(c1)O[C@H](CN(C)C(=O)Nc1ccc(OC)cc1)[C@H](C)CN([C@@H](C)CO)S2(=O)=O	-3	-2	-0.9
COc1ccc2c3c([nH]c2c1)[C@@H](CO)N(Cc1cc(F)ccc1F)CC31CN(C)C1	u	x	x
COc1ccccc1S(=O)(=O)N(C)C[C@@H]1Oc2cc(/C=C/c3ccccc3)ccc2S(=O)(=O)N([C@H](C)CO)C[C@@H]1C	-1	0	-0.7
COC(=O)C[C@@H]1CC[C@@H]2[C@H](COc3ccc(NC(=O)Nc4ccc(Cl)cc4)cc3C(=O)N2C)O1	-1	-1	-0.2
CCC(=O)Nc1ccc2c(c1)C(=O)N(C)[C@@H]1CC[C@H](CC(=O)N[C@@H](C)c3ccccc3)O[C@H]1CO2	2	2	0.6

Compound profiles, as listed above. Order of screens: DUX4 txn inh	DUX4 txn inh difference	DUX4 txn inh control
`CO[C@@H](CN(C)Cc1cc(F)ccc1F)[C@@H](C)CN(C(=O)Nc1ccc(F)cc1)[C@@H](C)CO` is listed as -2	-2	-0.4
`COc1ccc(NC(=O)N(C)C[C@@H]2OCc3cn(nn3)CCCC(=O)N([C@H](C)CO)C[C@H]2C)c(OC)c1` is listed as -7	-12	4.8
`COc1ccccc1CNC(=O)C[C@H]1C[C@H]2c3cc(NC(=O)Nc4ccc(C(F)(F)F)cc4)ccc3O[C@H]2[C@H](CO)O1` is listed as u	x	x
`COc1ccccc1CN1C[C@@H]2N[C@H](C1)C2c1ccc(-c2ccncc2)cc1` (stereo not given in full) is listed as -14*!	-39*!	26*!
`CCC(=O)Nc1ccc2c(c1)C(=O)N(C)[C@@H]1CC[C@H](CC(=O)N[C@@H](C)c3ccccc3)O[C@H]1CO2` is listed as 2	2	0.6

Following part.
SMILES	DUX4 txn inh	DUX4 txn inh difference	DUX4 txn inh control
COC(=O)[C@H]1[C@H](CO)[C@H]2Cn3c(ccc(C4=CCCCC4)c3=O)[C@H]2N1C(=O)C1CC1	0	-3	2.4
OC[C@@H]1[C@H](c2ccc(-c3ccc(F)cc3)cc2)[C@@H](CNC2CCCC2)N1CCC(F)(F)F	2	3	-0.5
CS(=O)(=O)Nc1ccc2c(c1)[C@@H]1C[C@H](CC(=O)NCc3cc(F)ccc3F)O[C@@H](CO)[C@@H]1O2	-2	2	-4.0
Cc1noc(C)c1S(=O)(=O)Nc1ccc2c(c1)C(=O)N([C@@H](C)CO)C[C@@H](C)[C@@H](CN(C)C(=O)NC1CCCCC1)O2	-1	-4	2.9
CCCNC(=O)N1CC[C@@H]2[C@H]1c1cc(-c3ccc(OC)cc3)ccc1N(C)[C@H]2CO	-7	20	-27
COC(=O)C[C@@H]1CC[C@H]2[C@H](COc3ccc(NC(=O)Nc4cccc(C#N)c4)cc3C(=O)N2C)O1	2	2	0.2
C[C@H](CO)N1C[C@H](C)[C@@H](CN(C)S(=O)(=O)c2cccs2)Oc2ccc(NC(=O)CCN3CCOCC3)cc2C1=O	4	-1	4.6
N#C[C@H]1[C@@H](c2ccccc2-c2ccc(F)cc2)[C@@H](CO)N1C(=O)Cc1cccnc1	1	4	-2.2
CCN1[C@@H]2Cn3c(ccc(-c4cccnc4)c3=O)[C@H]1[C@@H](C(=O)NC1CCCC1)[C@@H]2CO	7	-9	16
O=C(O)[C@@H]1[C@@H](CO)[C@@H]2Cn3c(cccc3=O)[C@@H]2N1C(=O)NC1CCCC1	2	3	-1.0
CN1C(=O)c2cc(NC(=O)c3ccc(F)c(F)c3)ccc2OC[C@H]2O[C@@H](CC(=O)Nc3ccc4c(c3)COC4)CC[C@@H]21	2	1	1.8
CCCNC(=O)C[C@@H]1CC[C@H]2[C@@H](COC[C@@H](O)CN2C(=O)C2CCOCC2)O1	1	-3	3.5
CO[C@H](CN(C)C(=O)Nc1ccc(C(F)(F)F)cc1)[C@@H](C)CN(Cc1ccccc1Cl)[C@@H](C)CO	0	1	-0.7
CN1C(=O)c2cc(NC(=O)c3ccc(C#N)cc3)ccc2OC[C@H]2O[C@@H](CC(=O)NC3Cc4ccccc4C3)CC[C@@H]21	0	-1	1.1
O=C(O)C[C@H]1C[C@H]2c3cc(NC(=O)Nc4ccccc4)ccc3O[C@H]2[C@@H](CO)O1	3	2	0.4
CCCNC(=O)C[C@H]1CC[C@H]2[C@H](COc3ccc(NS(=O)(=O)c4ccccc4C)cc3C(=O)N2C)O1	-3	-7	4.3
COc1ccc2c3c(n(C)c2c1)[C@H](CO)NCC31CCN(C(=O)Nc2ccc3c(c2)OCO3)CC1	u	x	x
Cc1nn(C)cc1NC(=O)C[C@H]1CC[C@@H]2[C@H](COc3ccc(NC(=O)Nc4cccc(Cl)c4)cc3C(=O)N2C)O1	-1	-5	4.4
O=C(c1cnccn1)N1CC(=O)N2[C@H](CO)[C@H](c3ccc(-c4cccc(F)c4)cc3)[C@@H]2C1	8	-1	9.1
CC(=O)N1C[C@@H]2[C@H](c3ccccc31)[C@@H](CO)N2C(=O)Nc1ccc(F)cc1	4	4	0.0
CO[C@H]1CN(C)C(=O)c2cc(NC(=O)CC(F)(F)F)ccc2OC[C@@H](C)N(CC2CC2)C[C@H]1C	1	1	-0.8
O=C(NC1CCCC1)N1CCCCN2[C@@H](CO)[C@H](c3ccc(-c4cccnc4)cc3)[C@@H]2C1	12	9	3.0
O=C(C[C@H]1CC[C@H]2[C@@H](COC[C@@H](O)CN2Cc2nccs2)O1)NCc1ccc(-c2ccccc2)cc1	u	x	x
CC(C)NC(=O)N1CC[C@@H]2[C@H]1c1cc(-c3ccccc3)ccc1N(C)[C@H]2CO	1	8	-7.6
CN(C)C(=O)C[C@H]1C[C@H]2c3cc(NC(=O)C4CCOCC4)ccc3O[C@H]2[C@@H](CO)O1	12	8	3.5
CN1C(=O)c2cc(NS(=O)(=O)c3ccc(F)cc3)ccc2OC[C@@H]2O[C@H](CC(=O)NCC(F)(F)F)CC[C@H]21	-1	2	-2.8
O=C(Cc1cccnc1)N1CC2(C1)[C@H](c1ccccc1)[C@@H](CO)N2C(=O)C1CC1	2	-4	5.7
O=C(C[C@H]1C=C[C@@H](NC(=O)c2cccnc2)[C@@H](CO)O1)NCCN1CCCCC1	2	6	-3.9
O=C(C1CC1)N1CC2(C1)[C@H](c1ccccc1)[C@@H](CO)N2CC1CCCC1	-4	-12	7.6
COc1cccc(C#Cc2ccc([C@@H]3[C@@H](CO)N4C(=O)CN(C(=O)c5ccccc5)C[C@@H]34)cc2)c1	u	x	x

Some values from the entries so far:
DUX4 txn inh control result of `O=C(c1cnccn1)N1CC(=O)N2[C@H](CO)[C@H](c3ccc(-c4cccc(F)c4)cc3)[C@@H]2C1` = 9.1
DUX4 txn inh difference result of `CN1C(=O)c2cc(NS(=O)(=O)c3ccc(F)cc3)ccc2OC[C@@H]2O[C@H](CC(=O)NCC(F)(F)F)CC[C@H]21` = 2

(list continues)
SMILES	DUX4 txn inh	DUX4 txn inh difference	DUX4 txn inh control
CCCNC(=O)N1C[C@H]2[C@@H](c3ccccc31)[C@@H](CO)N2C(=O)Nc1ccccc1	1	5	-4.5
CC(C)CC#Cc1ccc([C@@H]2[C@H]3CN(C(=O)NC4CCCC4)CCCCN3[C@H]2CO)cc1	u	x	x
Cc1ccccc1CN(C)C[C@@H]1OCc2cnnn2CCCC(=O)N([C@H](C)CO)C[C@H]1C	-5	-8	2.5
CNC(=O)C[C@H]1CC[C@@H]2[C@H](COC[C@H](O)CN2Cc2ccc(C(F)(F)F)cc2)O1	4	1	2.9
COc1ccc2c3c(n(C)c2c1)[C@@H](CO)N(C(=O)c1ccncc1)CC31CCN(C(C)=O)CC1	17	-10	27
CC(C)NC(=O)N[C@H]1CC[C@@H](CC(=O)NC2Cc3ccccc3C2)O[C@@H]1CO	3	0	3.4
COC(=O)C[C@H]1CC[C@@H]2[C@H](COC[C@@H](O)CN2S(=O)(=O)c2ccccc2C)O1	9	11	-1.8
C[C@@H]1CCCCO[C@@H](CN(C)C(=O)Cc2ccccc2)[C@H](C)CN([C@@H](C)CO)C(=O)c2cc(N(C)C)ccc2O1	-1	3	-3.9
CN(C)C(=O)C[C@H]1C=C[C@@H](NC(=O)C2CCOCC2)[C@@H](CO)O1	-2	-1	-0.5
CN(C)CC(=O)Nc1ccc2c(c1)[C@H]1C[C@H](CC(=O)NCCN3CCCCC3)O[C@H](CO)[C@H]1O2	7	12	-4.7
CN(C)CC(=O)N[C@H]1CC[C@@H](CC(=O)O)O[C@H]1CO	6	3	3.0
CCCNC(=O)N1CC(=O)N2[C@H](CO)[C@H](c3ccc(C#Cc4cccc(F)c4)cc3)[C@H]2C1	-8	-13	5.1
CC(=O)N1[C@H](CO)[C@H](c2ccc(C3=CCCC3)cc2)C12CN(C(=O)C1CC1)C2	3	0	2.7
CC(=O)N1[C@@H]2c3ccc(-c4ccccc4)c(=O)n3C[C@H]1[C@H](CO)[C@H]2C(=O)Nc1ccccc1	1	-1	1.8
CO[C@H](CN(C)C(=O)c1cnccn1)[C@H](C)CN([C@H](C)CO)S(=O)(=O)c1ccc(F)cc1	6	25	-19
Cc1cccc(S(=O)(=O)N2CC[C@H]3[C@@H](CO)N(C)c4ccc(Br)cc4[C@H]32)c1	3	2	1.0
CC(=O)N1[C@H](CO)[C@@H](c2ccccc2)[C@H]1CN(CC(C)C)C(=O)c1ccccn1	1	1	-0.4
O=C(Nc1cccc(F)c1)N1C[C@@H]2[C@H](c3ccccc31)[C@@H](CO)N2C(=O)c1ccccn1	2	0	2.3

Another view of three compounds above.
structure,DUX4 txn inh,DUX4 txn inh difference,DUX4 txn inh control
CC(C)CC#Cc1ccc([C@@H]2[C@H]3CN(C(=O)NC4CCCC4)CCCCN3[C@H]2CO)cc1,u,x,x
CC(=O)N1[C@@H]2c3ccc(-c4ccccc4)c(=O)n3C[C@H]1[C@H](CO)[C@H]2C(=O)Nc1ccccc1,1,-1,1.8
CN(C)CC(=O)N[C@H]1CC[C@@H](CC(=O)O)O[C@H]1CO,6,3,3.0
